Vif TR-FRET = HIV-1 Vif–A3G interaction blockers – biochemical, TR-FRET, GST-Vif 1-94, biotin-A3G peptide, dose response retest, primary screen (AID 1117319); inhibition, %, or IC50 in µM where a hit was titrated; hit rate 0.57% among 260,000; TR-FRET GST-Vif / biotin-A3G peptide binding; higher % means a stronger effect; test concentration not given here; strong numbers were not always called active;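 active = above the screen mean plus three standard deviations and confirmed in dose response; inconclusive = results disagree or hit not tested in dose response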;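 note: Vif residues 1-94 fused to GST binding biotinylated APOBEC3G peptide 110-148; 0% = full assay without inhibitor and 100% = GST in place of GST-Vif; retest series ran down from 100 µM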
Beta cell apopt = blocks beta cell apoptosis | hit rate 0.8% among 300,000 | INS-1E cytokine-induced death, ATP luminescence, 48 h; percent of positive-control rescue, neutral wells zero | protection from apoptosis, % (test concentration not listed);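 active = all replicates at 75% or more, or half of them and the mean; inconclusive = half reach 75% but not the mean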;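 note: 0% = cytokine-treated negative control wells and 100% = positive control rescue; higher means more ATP so stronger rescue from cytokine killing; wells of about 40 µL received 100 nL stock; the first replicate is given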
RanGTP-Imp inh = inhibitors of RanGTP-importin-beta interaction, primary screen, biochemical, FRET, CFP-Ran, YFP-importin-beta, homogeneous. cell-free CFP-Ran/YFP-importin-beta FRET ratio. inhibition, % (test concentration not listed). hit rate 1.1% among 300,000. AID 2216;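 active = most replicates above 15%; inconclusive = exactly half above 15%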;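 note: 0% = DMSO wells and 100% = Ran loaded with GDP instead of GTP; wells of about 40 µL received 100 nL stock; the first replicate is given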
Calb FLC = C. albicans growth modulation with fluconazole; C. albicans CaCi-2 (fluconazole-resistant clinical isolate) + fluconazole, Alamar Blue growth, 48 h; growth inhibition, % (test concentration not listed); hit rate 0.57% among 300,000;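 active = most replicates above 75%; inconclusive = exactly half above 75%; inactive = most below 75%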;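 note: all wells also contain fluconazole at 8 µg/ml as a sub-toxic cotreatment; 0% = median of DMSO wells and 100% = median of geldanamycin control wells; wells of about 8 µL received 7.5 nL stock; the first replicate is given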
Bfl-1 A1 inh = inhibitors of the anti-apoptotic protein A1, read as caspase activation | MEF A1-2A-BIM cells, Caspase-Glo 3/7 luminescence, 3 h; percent of clofoctol response, vehicle zero | caspase activation, % (concentration not given with the values) | hit rate 0.066% among 330,000 | AID 2462;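 active = over half of replicate activation scores above 10%, or exactly half above 10 with the replicate mean above 10; inconclusive = replicate mean below 10 yet half the replicates above 10; inactive = over half of replicates below 10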;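 note: wells of about 30 µL received 50 nL stock; many hits fall short of the cut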
MLL AF4-AF9 inh = inhibitors of human MLL-AF4/AF9 interaction. inhibition, % at 10 µM. P42568. AlphaScreen, biotin-AF4 peptide binding to FLAG-AF9. hit rate 0.47% among 350,000;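 active = every replicate reaching a set inhibition limit, whatever the replicate mean, cut at about 25% in these data; inconclusive = mean inhibition reaches that limit but some replicates miss it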;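 note: 0% = plate neutral control median and 100% = total signal loss; the record names both 10 and 1 µM as test concentration; the first replicate is given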
Target sequence (P42568 whole entry, looked up): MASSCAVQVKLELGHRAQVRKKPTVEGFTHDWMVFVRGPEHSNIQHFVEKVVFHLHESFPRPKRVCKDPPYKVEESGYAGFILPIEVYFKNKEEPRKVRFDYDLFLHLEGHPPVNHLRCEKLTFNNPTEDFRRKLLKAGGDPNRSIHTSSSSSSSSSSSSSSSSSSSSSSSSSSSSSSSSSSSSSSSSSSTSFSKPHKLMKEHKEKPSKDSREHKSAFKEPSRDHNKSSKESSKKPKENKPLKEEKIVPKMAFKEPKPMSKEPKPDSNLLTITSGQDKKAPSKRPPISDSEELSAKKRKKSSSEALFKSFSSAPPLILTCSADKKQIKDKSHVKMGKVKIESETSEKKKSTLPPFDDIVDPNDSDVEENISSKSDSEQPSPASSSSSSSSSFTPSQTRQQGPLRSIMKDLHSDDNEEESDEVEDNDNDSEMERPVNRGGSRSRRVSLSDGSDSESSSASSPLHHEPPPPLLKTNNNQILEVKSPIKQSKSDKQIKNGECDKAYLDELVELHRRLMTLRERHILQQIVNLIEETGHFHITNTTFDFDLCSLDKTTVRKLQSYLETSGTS
T cruzi inh = T. cruzi replication inhibition. T. cruzi beta-gal in NIH3T3, luminescence, 90 h. inhibition, % (concentration not given with the values). hit rate 1.4% among 300,000;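 active = mean inhibition across valid replicates above about 55%, limit read from the data; inconclusive = mean below that limit but half or more replicates reach it; inactive = mean below it, under half of replicates reach it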;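 note: signal also drops with host cell toxicity which is not excluded here; 0% = plate median of DMSO wells and 100% = zero luminescence signal; higher percent means less beta-gal luminescence so fewer parasites; stock transfer was 50 nL into about 50 µL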
LANA-H2B inh = blocks KSHV LANA binding to histone H2A/H2B | AID 2629 | hit rate 0.6% among 320,000 | cell-free LANA-H2A/H2B peptide, fluorescence polarization | inhibition, % (no concentration beside the values); in the data active = inhibition mostly above about 10%, no sharp cut-off; inactive = mostly below about 6.7%;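 note: stock transfer was 7.5 nL into about 10 µL; 0% = median of vehicle wells and 100% = median of positive control wells; one replicate is shown; the record names a cut of 25% in any replicate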
Starred values were filed as active, the others as inactive; ? = inconclusive; / = not tested or not shown; & = joins results of further samples. No enrichment for hits; overall some 4.3% were active at least once.

Compound,Beta cell apopt,T cruzi inh,Calb FLC,RanGTP-Imp inh,LANA-H2B inh,Bfl-1 A1 inh,MLL AF4-AF9 inh,Vif TR-FRET
C/C(N)=C(/C#N)C(=O)COC(=O)C(NS(=O)(=O)c1ccc(Cl)cc1)C(C)O (stereo not given),-7,-11,-2,2.6,4.0,-0.2,-3.4,-4%&32%
Cc1ccc(-n2[nH]c(C)c(C=Nc3ccc(S(=O)(=O)Nc4nccs4)cc3)c2=O)c(C)c1,-5,-9,0,/,-4.9,-0.3,/,-6%
Cc1cccc(C)c1NC(=O)CSc1nc(C)c(CC(=O)c2ccc(Br)cc2)c(C)c1C#N,37,2,-5,-0.6,-0.8,3.1,/,-117%
Cc1cc(F)ccc1S(=O)(=O)N1CCCOC1CNC(=O)C(=O)NC1CCCCC1 (stereo not given),0,2,-5,4.8,-1.2,0.9,2.1,/
O=C(CCSc1nnc(-c2ccncc2)o1)Nc1ccc(F)cc1,-1,5,5,2.7,1.3,-0.4,/,31%
O=C(O)CCCCCCCCc1cn(CN2C(=O)c3ccccc3C2=O)nn1,-3,-22,-7,-1.9,-0.6,-1.4,-5.0,/
CCOc1ccc(C(Nc2ccc(C)cc2)P2(=O)OCC(C)(C)CO2)cc1 (stereo not given),0,8,4,-4.9,2.4,1.4,/,4%
COc1cccc(-c2csc3nnc(SCC(=O)NCc4cccs4)n23)c1,0,15,-3,0.3,-1.7,0.5,/,-2%
Cc1ccc(NC(=S)NC(CO)C(O)c2ccc([N+](=O)[O-])cc2)cc1 (stereo not given),5,5,-9,2.2,0.8,0.5,-0.8,11%
O=C(NCCCCCCNC(=O)OC1CCS(=O)(=O)C1)OC1CCS(=O)(=O)C1 (stereo not given),-6,-3,3,-2.4,3.4,1.6,/,5%
N#CC(/C(=N/S(=O)(=O)c1cccs1)c1ccccc1)c1nc2ccccc2[nH]1 (stereo not given),9,11,19,12,0.4,0.5,/,8%
O=C(c1cccs1)N1C(=O)c2cccc3cccc1c23,1,4,-6,-0.2,1.5,0.0,2.5,10%
CC(=O)NCCc1nc2ccccc2n1Cc1cccc(C)c1,-3,-3,3,0.5,-1.8,-0.2,0.6,-1%
Cc1ccnc(SC2CC(=O)N(c3ccc([N+](=O)[O-])cc3)C2=O)n1 (stereo not given),-4,-5,-17,2.6,-0.9,0.4,0.7,/
CCC(C)Sc1ccc([C@@H]2[C@@H]3C(=O)N(CC)C(=O)[C@@H]3[C@]3(C(=O)OC)CCCCN23)cc1OC (stereo not given in full),-7,/,/,/,-1.9,-0.1,9.8,/
COc1ccc(C2CC(C)=NN2C=O)cc1OC (stereo not given),-1,-21,-8,-3.2,3.5,-0.8,/,-3%
Cc1ccc(CNC(=O)C2CCCN2S(=O)(=O)c2ccc3c(c2)C(C)(C)C(=O)N3C)cc1 (stereo not given),0,-9,5,6.2,1.6,0.7,0.1,/
COc1ccc(Cl)cc1S(=O)(=O)N1CCC(C(=O)NCCC2=CCCCC2)CC1,4,8,10,-6.3,1.1,0.1,-3.0,/
O=C(COc1ccc(Br)cc1Br)NC(=S)Nc1cccc(CO)c1,0,-25,-15,-1.4,2.2,-0.1,/,0%
Nc1ccc(C2=Nc3cccc4cccc(c34)N2)cc1,/,-21,-28,4.7,/,/,6.7,/
CCn1cc(/C=C(\NC(=O)c2ccccc2F)C(=O)NCCCN2CCOCC2)c2ccccc21,-6,0,5,1.9,0.4,-0.9,-0.5,/
CC(=O)NC(N1CCCCC1)C(F)(F)C(F)(F)C(F)(F)C(F)F (stereo not given),-1,-11,-1,2.6,0.9,1.1,/,1%
O=C(N/C(=C\c1ccc(Br)cc1)C(=O)N1CCOCC1)c1ccco1,-4,6,1,-0.7,-1.1,0.8,-2.3,/
CN(C(=O)c1ccc(-c2nn(C)c(=O)c3ccccc23)cc1)C1CCCCC1,20,5,11,9.4,2.0,0.3,0.2,/
CCCCOc1ccc(C2OC34CCCCC3C(C#N)(C#N)C2(C#N)C(=N)O4)cc1 (stereo not given),3,-2,6,-1.7,6.8,-0.5,/,?
CCn1c(SCC(=O)Nc2ccc(Cl)cc2)nc2nc3c(cc2c1=O)CCCC3,1,4,14,2.7,2.8,-0.3,/,/
Cc1onc(-c2ccccc2)c1-c1n[nH]c(=S)n1-c1ccccc1Cl,-7,5,20,0.5,1.5,-0.2,/,-4%
O=C(c1ccc(OC2CCN(C/C=C/c3ccc(F)cc3)CC2)cc1)N1CCCCC1,-4,16,-3,-4.6,0.0,0.3,6.7,/
COc1ccc(C)cc1S(=O)(=O)N1CCCC(C(=O)NC2CC2)C1 (stereo not given),/,-5,3,0.7,0.0,0.1,-1.4,/
CN(CC(=O)Nc1ccc(N2CCOCC2)cc1)CC(=O)Nc1cccc(C#N)c1,-6,-4,-2,0.8,-3.6,0.0,2.7,3%
CCOc1cccc(-c2nnc3sc(-c4cc(OC)c(OC)c(OC)c4)nn23)c1,6,22,-2,7.2,1.0,-0.8,/,14%
COc1ccc(C(=O)Sc2ccc(Cl)cc2)cc1OC,-14,15,5,0.7,3.3,3.2,/,2%
CCOC(=O)c1oc2ccccc2c1N,6,-4,-4,-2.1,-0.3,1.4,/,-1%
CCOC(=O)CSc1n[nH]c(=S)s1,3,-7,-10,2.8,-1.7,0.0,-5.8,/
CC1(C)Cc2cccc(OCC(=O)O)c2O1,-4,-16,3,-1.5,1.2,-0.6,/,?
C=CCC[C@@H](Cc1ccc(F)cc1)C(=O)OC[C@@H](C)NC(=O)[C@@H](CC=C)CC(=O)N[C@H](CO)Cc1ccccc1,4,/,/,/,4.8,2.0,-0.5,/
Cc1[nH]n(-c2ccccc2)c(=O)c1C(C[N+](=O)[O-])c1ccc(F)cc1 (stereo not given),6,2,-2,-0.9,2.7,-0.1,/,2%
CCCCCCCC(=O)NC(Nc1ccc(S(N)(=O)=O)cc1)C(Cl)(Cl)Cl (stereo not given),3,-8,-17,-2.0,0.1,0.2,/,-6%
Cc1cc(/C=C2\SC(=Nc3ccc(F)cc3)NC2=O)c(C)n1-c1ccc(S(N)(=O)=O)cc1,18,5,1,?,-5.3,0.6,/,-7%
COc1ccc(C2C(C(C)=O)=C(O)C(=O)N2CCc2c[nH]c3ccccc23)cc1OC (stereo not given),-1,-11,2,-2.8,4.4,-1.0,/,6%
COc1ccc2c(c1)[C@H]1[C@H](CO2)[C@H](c2ccccc2)[C@]2(C)C(=O)Nc3cc(OC)c(OC)cc3C(=O)N12,8,/,/,/,-4.9,1.3,6.2,/
COC(=O)c1cc(OC)c(OC)cc1N,2,3,4,-0.9,-1.0,-8.1,/,14%
COc1ccc(CNC(=O)c2cccc(-c3ccc(C)c4ccccc34)n2)cc1,-6,16,-27,2.6,3.1,-0.8,/,-4%
CCOC(=O)C1C(=O)NC(N2CCc3ccccc32)=NC1c1ccccc1 (stereo not given),-1,-4,-5,0.7,2.9,-0.2,/,-2%
CCN1C(=O)/C(=C2\SC(=S)N(c3c(C)n(C)n(-c4ccccc4)c3=O)C2=O)c2ccccc21,-24,-19,3,1.9,-1.0,0.0,/,1%
CCc1cccc(CC)c1-n1c(SCC(=O)N2CCCc3ccccc32)nc(O)cc1=O,-11,/,/,/,-2.7,1.5,-2.4,44%
CCN1CCN(CC2COc3ccccc3O2)CC1 (stereo not given),-6,11,-2,2.9,-0.9,0.0,-0.9,-5%
CCOC(=O)c1cc2c(=O)n3ccccc3nc2n(Cc2ccco2)c1=NC(=O)c1ccccc1OC,6,6,-4,62*,-5.1,?,-2.9,18%

Marked active in RanGTP-Imp inh, of those listed so far:
Molecule,RanGTP-Imp inh,LANA-H2B inh,MLL AF4-AF9 inh,Vif TR-FRET
CCOC(=O)c1cc2c(=O)n3ccccc3nc2n(Cc2ccco2)c1=NC(=O)c1ccccc1OC,62*,-5.1,-2.9,18%

The listing continues.
Compound,Beta cell apopt,T cruzi inh,Calb FLC,RanGTP-Imp inh,LANA-H2B inh,Bfl-1 A1 inh,MLL AF4-AF9 inh,Vif TR-FRET
O=C(OCCN1CCOCC1)c1ccc2c(c1)OCCO2,-10,-8,-2,0.5,0.6,-1.1,/,-1%
O=C(COC(=O)C1(c2ccc(F)cc2)CCCC1)NCc1ccc2c(c1)OCO2,-1,2,-65,0.0,1.3,0.0,-5.5,/
Cc1noc(C)c1COc1ccccc1C(=O)N(C)CC(=O)Nc1ccc(F)c(F)c1F,1,/,/,/,-5.1,0.5,0.2,/
COc1ccc(N(CCC#N)S(=O)(=O)c2cccc3nsnc23)cc1,-4,-16,-3,-5.1,-5.7,0.4,/,/
COc1ccc(/C=C(\C)C(=O)c2c(C)cc(C)[nH]c2=O)cc1,-4,-20,0,1.4,-0.7,0.7,-0.5,/
CC1=Nc2cc(C(=O)NCCCOC(C)C)ccc2Sc2ccccc21,-3,13,-7,?,-6.0,0.9,2.8,0%
COc1ccccc1-c1nc2cc3ccccc3cc2nc1-c1ccccc1OC,-3,19,3,0.3,-1.6,-0.1,/,/
Cc1ccccc1OCC(=O)Nc1nc(-c2ccncc2)cs1,0,/,/,/,-229,0.1,-5.0,-14%

3 compounds already listed, arranged by the number in Vif TR-FRET, high to low.
smiles | Vif TR-FRET
CC1=Nc2cc(C(=O)NCCCOC(C)C)ccc2Sc2ccccc21 | 0%
O=C(OCCN1CCOCC1)c1ccc2c(c1)OCCO2 | -1%
Cc1ccccc1OCC(=O)Nc1nc(-c2ccncc2)cs1 | -14%

Screens deposited in PubChem BioAssay by several laboratories.
